GLA inh pH 4.5 – qHTS Assay for Inhibitors of Human alpha-Galactosidase at pH 4.5. Alpha-galactosidase A (Homo sapiens), P06280. purified enzyme, 4-MU-alpha-Gal fluorescence, pH 4.5. activity change, negative = inhibition, % at 105 µM. 230,000 tested, under 10 active. AID 1467, 2008; inconclusive = small, poorly fitted or top-dose-only inhibition, or a rising curve; inactive = flat fitted curve, though single readings scatter; no compound was filed as active;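 note: 0% = full activity with enzyme and -100% = basal without enzyme; dose as in the result columns while the protocol names 77 µM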
Rango release inh – qHTS Assay for Inhibitors of RanGTP induced Rango (Ran-regulated importin-beta cargo) - Importin beta complex dissociation. Snurportin-1 (Homo sapiens) + GTP-binding nuclear protein Ran (Homo sapiens) + Importin …. Biochemical FRET Rango-importin beta, RanGTP-induced dissociation. Potency, µM (highest dose often 46.1 µM), for the others: at the top dose activity change, negative = inhibition. actives 0.071% (n = 340,000). AID 540253, 2011; active means falling FRET ratio curve, often poorly fitted, with flat reads before Ran was added; inconclusive means other falling curves, or compound fluorescence or quenching; inactive means flat or rising ratio curve;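 note: potency is the fitted concentration of half-maximal effect; % of control where 0% means no effect; nearly all actives have a fitted effect of over 45% in size; -100% = wells without RanGTP and RCC1; the record marks most hits as doubtful in a second field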
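Compounds preincubate 5 min with complex of recombinant Rango and importin beta in PBS with 1 mM DTT. Ran (0.6 uM) loaded with 2 mM GTP plus 0.2 uM RCC1 starts dissociation; FRET is recorded 45 min later.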
miR-21 reporter – qHTS Assay for Modulators of miRNAs and/orActivators of miR-21; HeLa miR-21 FLuc reporter, luciferase, 48 h; Potency, µM (top dose mostly 38.3 µM), for inactives: at the highest dose reporter change, positive = more light; 340,000 tested, under 10 active; active = well fitted rising curve with a large enough effect; inconclusive = small, poorly fitted or top-dose-only effect; inactive = no such curve, though single readings can be large or run the other way;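 note: % of control where 0% means no effect; miR-21 action dims this reporter so a rising signal means less miR-21 action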
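HeLa cells stably expressing CMV-driven firefly luciferase with a downstream miR-21 binding sequence, endogenously expressing miR-21, were treated with titrations (up to about 40uM final) for 48 hours at 37 degree Celsius. Luciferase luminescence was read after lysis.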
Rango complex inh – qHTS Assay for Inhibitors of Rango (Ran-regulated importin-beta cargo) - Importin beta complex formation; actives 0.031% (n = 340,000); Potency, µM (highest dose often 92.2 µM), for inactives: at the highest dose inhibition of complex formation; AID 540263, 2011; Importin subunit beta-1 (Homo sapiens), Q14974; Rango CFP/YFP FRET sensor + importin beta, 45 min; active = rising FRET ratio curve, often small or poorly fitted; inconclusive = mostly compound fluorescence or quenching in the first reads; inactive = flat curves in all reads;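 note: potency is the fitted concentration of half-maximal effect; 0% = DMSO wells and 100% = buffer wells lacking importin beta; nearly all actives have a fitted effect of over 15% in size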
Target sequence (Q14974 whole entry, looked up): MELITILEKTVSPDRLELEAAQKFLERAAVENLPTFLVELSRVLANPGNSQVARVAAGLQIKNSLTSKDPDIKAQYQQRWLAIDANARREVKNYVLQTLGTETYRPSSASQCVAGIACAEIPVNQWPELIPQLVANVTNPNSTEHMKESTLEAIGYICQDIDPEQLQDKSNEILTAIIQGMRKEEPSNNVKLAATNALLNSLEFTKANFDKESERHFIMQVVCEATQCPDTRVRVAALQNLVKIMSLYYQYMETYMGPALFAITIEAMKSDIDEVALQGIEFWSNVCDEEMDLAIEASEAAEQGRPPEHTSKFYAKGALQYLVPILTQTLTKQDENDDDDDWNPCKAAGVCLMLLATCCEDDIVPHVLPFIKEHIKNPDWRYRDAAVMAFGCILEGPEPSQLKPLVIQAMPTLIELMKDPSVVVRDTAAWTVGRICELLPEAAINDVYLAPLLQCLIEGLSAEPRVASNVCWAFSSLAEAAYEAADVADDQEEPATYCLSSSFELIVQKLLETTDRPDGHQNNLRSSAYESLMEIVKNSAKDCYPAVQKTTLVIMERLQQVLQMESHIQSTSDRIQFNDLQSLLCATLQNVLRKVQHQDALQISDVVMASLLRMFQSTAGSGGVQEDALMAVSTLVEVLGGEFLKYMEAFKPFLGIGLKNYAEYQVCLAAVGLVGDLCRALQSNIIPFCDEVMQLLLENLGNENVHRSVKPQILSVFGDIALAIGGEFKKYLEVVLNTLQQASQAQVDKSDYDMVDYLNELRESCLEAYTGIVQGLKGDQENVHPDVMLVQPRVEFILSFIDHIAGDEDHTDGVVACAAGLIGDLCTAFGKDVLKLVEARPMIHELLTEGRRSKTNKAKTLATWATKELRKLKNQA
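FRET biosensor Rango (snurportin 1 IBB between N-terminal EYFP and C-terminal Cerulean), 50 nM in PBS/1 mM DTT/0.02% Tween-20/0.1% BSA, preincubated 5 min RT with compound; 0.125 microM importin beta added, 45 min RT, CFP/YFP FRET ratio read.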
The depositor's hits bear a star; ? = inconclusive; nt = no result given; & = joins results of further samples.

Below each SMILES: miR-21 reporter | Rango release inh | Rango complex inh | GLA inh pH 4.5
> CCN(CC(=O)Nc1ccc(OC)cc1)C(=O)c1cc(-c2cccs2)nn1-c1ccccc1
→ nt | -2.4% | ? | nt
> COc1ccc(CNC(=O)C(OC(=O)c2ccco2)c2ccc(F)cc2)cc1 (stereo not given)
→ -13.7% | -1.2% | -3.2% | nt
> CCOC(=O)C(C#N)C(c1cccnc1)c1c(C)[nH][nH]c1=O (stereo not given)
→ -12.3% | 1.5% | -0.8% | 10.3
> CCOC(=O)N1CCN(c2c(-c3ccc(C)c(C)c3)c(=O)c2=O)CC1
→ -14.4% | 2.1% | -0.3% | -5.6
> CC(C)C(NC(=O)c1ccc([N+](=O)[O-])cc1Cl)C(=O)N1CCCC1 (stereo not given)
→ 2.2% | -6.6% | 1.6% | nt
> O=C(CC1NC(=S)NC1=O)c1ccc(Cl)cc1 (stereo not given)
→ 5.2% | -7.7% | -1.1% | 1.3
> CC(=O)Nc1cc(F)c2c(c1F)Cc1cc(F)ccc1-2
→ nt | 2.9% | 2.3% | nt
> C=CCC(COCc1ccccc1)NS(=O)(=O)c1ccccc1Br (stereo not given)
→ 9.6% | -14.9% | -0.1% | -4.8
> Cc1cc(NC(=O)C(C)SCC(=O)N(C)CC(=O)Nc2ccccc2Br)no1 (stereo not given)
→ nt | -13.1% | -3.7% | nt
> O=c1c2ccccc2nnn1CSc1ccc2ccccc2n1
→ -19.5% | 2.0% | -0.8% | 3.0
> O=C1OC2(c3ccccc3)C3CCCC2C13
→ -3.8% | -1.2% | 2.0% | 0.7
> COc1cc(-c2nc3ccccc3s2)ccc1O
→ -50.9% | ? | ? | ?
> COc1cc(C(=O)C(=O)c2cc(OC)c(O)c(OC)c2)cc(OC)c1O
→ -4.4% | 1.4% | -4.4% | -8.6
> CCc1cc(=O)oc2c(C)c(O)c(CN3CCCCC3)cc12
→ -13.9% | ? | ? | ?
> COc1ccc2nc(SCC(=O)N(C)C3CCCCC3)c(C#N)cc2c1
→ -17.2% | -20.4% | ? | -5.2
> O=C(COC(=O)c1cccc(Cl)c1)Nc1cccc(S(=O)(=O)NC2=NCCC2)c1
→ nt | 17.2% | 1.6% | nt
> Cc1cc(C(F)F)nn1CC(=O)NCc1ccco1
→ -1.3% | -20.8% | 0.1% | 9.7
> CCCC(=O)Nc1cc(OCC)c(NC(=O)NC2CCCCC2)cc1OCC
→ 0.7% | 10.0% | -0.2% | -0.5
> CCCS(=O)(=O)c1ncc(Cl)c(C(=O)Nc2ccc(S(=O)(=O)Nc3ncccn3)cc2)n1
→ -1.6% | -6.1% | -0.6% | nt
> O=C(NC1CCCC1)C1CCN(S(=O)(=O)c2ccccc2)CC1
→ -0.9% | 2.6% | -2.4% | nt
> CCSc1nc(N2CCOCC2)c2c(c1C#N)CC(C)(C)N(C)C2
→ -7.4% | ? | ? | -1.8
> O=C(COc1ccccc1Cl)N1CCN(C(=O)c2ccco2)CC1
→ -8.2% | 0.6% | -0.9% | nt
> COc1ccc(OC)c(NC(=O)N2CCCC(CNS(=O)(=O)c3cccs3)C2)c1 (stereo not given)
→ 0.7% | 2.3% | -3.2% | -3.4
> COCC(=O)N1CCN(c2ccc([N+](=O)[O-])cc2)CC1
→ -1.1% | -12.7% | 0.1% | 0.8
> CC(C)(C)c1ccc(C(=O)OCC(=O)NC2CC2)cc1
→ nt | 15.6% | 1.2% | nt
> CC1CN(C(=O)COC(=O)c2ccc(C#N)cc2)CC(C)O1 (stereo not given)
→ 5.2% | 6.1% | 1.2% | nt
> CCN(C(=O)COC(=O)CNS(=O)(=O)c1ccccc1)c1ccccc1
→ -1.2% | -11.0% | ? | 3.0
> COc1ccccc1N1CCN(C(=O)c2c(-c3c(F)cccc3Cl)noc2C)CC1
→ 23.6% | -12.0% | -1.4% | nt
> CCCC(=O)NCCc1cc2cc(C)c(C)cc2[nH]c1=O
→ -4.8% | 5.6% | 2.0% | 9.1
> O=C(N/N=C/c1ccccn1)c1c[nH]c2ccccc12
→ -51.1% | 0.3% | -0.3% | 0.4
> Cc1[nH]c2ccccc2c1C(=O)C(=O)N(C)C1CCCCC1
→ -0.7% | 12.9% | 1.8% | nt
> Cc1ccc(OCC(=O)N/N=C2\CCOc3c(C)cccc32)cc1
→ 0.7% | -1.5% | -5.3% | -2.3
> CCC(=O)N1CCc2cc(S(=O)(=O)CCC(=O)NCc3ccc(C)cc3)ccc21
→ -0.2%&0.6% | -11.4% | -5.2% | nt
> COc1ccc(C)cc1NC(=O)CN1C(=O)COc2ccc(S(=O)(=O)N3CCOCC3)cc21
→ -4.8%&0.0% | 0.1% | 0.1% | nt
> Cc1cccc(NC(=O)CSc2nnc(C)c(=O)n2N)c1C
→ 1.4% | 4.9% | 4.3% | -0.7
> CCc1nc(N)c(C#N)c(-c2ccncc2)c1C
→ -10.5% | 6.3% | -0.4% | 5.9
> CCOc1ccc(OCCCC(=O)N(CC)CC(=O)Nc2c(F)cccc2F)cc1
→ nt | -1.0% | 0.0% | nt
> Cn1c(=O)c2[nH]c(-c3cccnc3)nc2n(C)c1=O
→ 1.6% | 13.3% | -1.2% | -7.2
> Cc1cc(C)c(C#N)c(N2CCN(Cc3ccc4c(c3)OCO4)CC2)n1
→ -12.2% | -21.8% | 0.4% | -2.8
> COc1ccc(C)cc1N(C)C(=O)Cc1c(C(=O)O)n(C)c2ccccc12
→ 2.3% | 8.2% | 2.0% | nt
> CCc1ccc(Nc2nnc(SC3CCOC3=O)s2)cc1 (stereo not given)
→ -1.6% | 2.2% | -3.0% | 4.3
> COc1cc2cc(C(=O)N(C)C3CCS(=O)(=O)C3)[nH]c2cc1OC (stereo not given)
→ 1.3% | -11.1% | -1.9% | nt
> COc1ccc(Cl)cc1NC(=O)CCn1cnc2ccccc2c1=O
→ -10.1% | -0.5% | 0.0% | -7.8
> CCn1c(=NC(=O)CN2C(=O)CCC2=O)sc2c(C)cc(C)cc21
→ -4.3% | 1.5% | -0.5% | 1.3
> CCCc1[nH]n(-c2nc3ccccc3s2)c(=O)c1C=NCCN1CCOCC1
→ -30.7% | -24.0% | 1.4% | 4.9
> Cc1nn(-c2ccccc2)c2[nH]c(=O)c(CNCc3ccc4c(c3)OCO4)cc12
→ -3.5% | -15.1% | -0.7% | 14.2
> NNC(=O)c1nnn(-c2nonc2N)c1-c1cccs1
→ -3.6% | -12.5% | 0.3% | 3.4
> CC1=C/C(=C/N(C)C)C(=O)O1
→ -1.8% | 12.7% | -2.3% | -4.6
> O=C(Nc1ccccc1)c1nnsc1S(=O)(=O)c1ccc(Cl)cc1
→ 19.1% | -11.5% | 9.3% | -0.5
> O=C(NCc1ccc2c(c1)OCO2)c1c[nH]c2ccc(S(=O)(=O)N3CCOCC3)cc2c1=O
→ -2.4% | 0.1% | -1.8% | 3.1
> Cc1ccccc1OCC(=O)Nc1cccc(NC(=O)c2ccco2)c1
→ -13.1% | -4.0% | -0.1% | 1.8
> COC(=O)CCCC1=CC2=CC(=O)C(C)(OC(=O)c3cccs3)C(=O)C2=CN1CCCOC(C)C (stereo not given)
→ 3.2% | -19.1% | -4.6% | 2.7&-5.3
> COc1ccc2cc(C(=O)NC3CCCCC3)c(=O)oc2c1
→ 1.0% | -4.0% | -0.6% | 6.4
> O=C(c1cc(COc2cccc(C(F)(F)F)c2)on1)N1CCSCC1
→ -3.4% | -0.2% | 2.5% | nt
> Cc1ccc(Cl)c(OC(=O)c2ccc(N3CCOCC3)c([N+](=O)[O-])c2)c1
→ -7.9% | 10.1% | 6.8% | -7.0
> Cc1ccc(NCc2nnc(SCC(=O)N3CCCCC3)n2CC2CCCO2)c(C)c1 (stereo not given)
→ nt | -3.4% | 1.2% | nt
> COC(=O)[C@H](CC(C)C)NC(=O)Cn1cnc(C(=O)Nc2ccc(C)c(C)c2)n1
→ nt | -9.2% | -0.4% | nt
> CN(C)c1ccc(/C=N/c2cc(-c3ccccc3)nn2-c2ccccc2)cc1
→ -32.5% | -12.9% | 3.1% | 0.7
> CC1CCCN(S(=O)(=O)c2cc(C(=O)NCc3ccco3)ccc2Cl)C1 (stereo not given)
→ nt | 5.0% | -0.6% | nt
> COc1ccccc1C1C(C(=O)c2cc3ccccc3o2)=C(O)C(=O)N1c1cc(C)on1 (stereo not given)
→ -7.5% | ? | ? | nt

(listing goes on)
Below each SMILES: miR-21 reporter | Rango release inh | Rango complex inh | GLA inh pH 4.5
> COc1cccc(CNc2nc3nc(C)cc(C)n3n2)c1
→ -35.0% | 1.7% | -1.9% | -3.3
> O=C(CCC1CC(=O)Nc2ccccc21)NCc1ccccc1 (stereo not given)
→ -3.9% | -2.6% | -6.2% | 6.4
> C/C(=N\NC(=O)c1cc(C)nc2ccccc12)c1ccco1
→ 21.1% | -4.6% | -2.3% | 6.9
> COc1ccc(C2CC(O)(c3ccccc3)Oc3cc(OC)cc(OC)c32)cc1 (stereo not given)
→ 8.1% | -16.4% | -0.6% | 4.6
> Nc1nc(Cl)nc2c1ncn2C1CC(O)C(CO)O1 (stereo not given)
→ nt | 6.2% | 1.2% | nt
> CCN(CC)c1ccc(NC(=O)CSC(=O)c2ccccc2)cc1
→ nt | 2.6% | 1.0% | nt
> CC1CCCCN1C(=O)CSc1nc(C2CC2)nc2ccccc12 (stereo not given)
→ 16.8% | 1.7% | 0.3% | nt
> COCCN(C(=O)COC(=O)Cc1coc2cc3c(cc12)CCC3)c1c(N)n(Cc2ccccc2)c(=O)[nH]c1=O
→ nt | -10.7% | -1.9% | nt
> CCCCC(CC)CNC(=O)c1ncn[nH]1 (stereo not given)
→ 3.0% | 17.3% | -2.7% | 1.5
> CC(C)(C)C(=O)Nc1cccc(OC(F)(F)C(F)Cl)c1 (stereo not given)
→ -17.9% | 22.1% | -0.9% | 3.5
> CCCCn1c(N)c(N(CC(C)C)C(=O)CN(C)S(=O)(=O)c2ccc(F)cc2)c(=O)[nH]c1=O
→ nt | 5.8% | -3.4% | nt
> Cc1nc2c(C(=O)NCc3ccc4c(c3)OCO4)c[nH]n2c(=O)c1Cl
→ -0.1% | -9.4% | -1.9% | -4.6
> O=C(COc1ccccc1)NCC(=O)Nc1ccc(S(=O)(=O)NCc2ccco2)cc1
→ -0.7% | -0.9% | -2.4% | 0.9
> CC1CCN(C(=O)CCCNC(=O)Cn2cnc3sc4c(c3c2=O)CCCC4)CC1
→ -2.4% | -8.3% | -0.2% | 1.0
> CC(C)CSc1nnc2c3ccccc3n(C)c2n1
→ -61.3% | -8.9% | -1.6% | nt
> CCCc1nnc(SCC(=O)Nc2cccc(C(F)(F)F)c2)o1
→ -1.4% | ? | 0.1% | nt
> COc1ccc(NC(=O)CN(C)C(=O)C(C)N2C(=O)c3ccccc3C2=O)cc1 (stereo not given)
→ nt | 19.0% | 7.4% | nt
> COc1cc2c(cc1OC)C(C)N(CCN1C(=O)c3ccccc3C1=O)CC2 (stereo not given)
→ -1.0% | 24.2% | 0.8% | nt
> Cc1ccccc1S(=O)(=O)c1c(C)cc(C)n(C)c1=O
→ -1.1% | 2.2% | -0.8% | -2.7
> COc1ccccc1N1CCN(/N=C\c2ccccc2)CC1
→ -62.5% | 14.9% | -0.3% | nt
> Cn1cnc2c(NCc3ccco3)ncnc21
→ -9.5% | ? | 1.3% | nt
> COc1ccc(CCNC(=O)c2cc3c(=O)n(C)c4ccccc4c3n2C)cc1OC
→ 5.6% | -0.3% | 0.5% | 3.3
> O=C1C(O)CCN1C1CCCCC1 (stereo not given)
→ nt | 0.5% | 4.5% | nt
> CCN1CCN(C(=O)N(c2ccccc2)c2ccccc2)CC1
→ -4.1% | -7.4% | -1.6% | nt
> CS(=O)(=O)N1CCN(C(=O)NC2CCCCC2)CC1
→ 3.3% | -3.3% | -4.2% | 0.4

Single values from the entries so far.
COc1ccc(NC(=O)CN(C)C(=O)C(C)N2C(=O)c3ccccc3C2=O)cc1 (stereo not given) in Rango release inh is entered as 19.0%
CCN1CCN(C(=O)N(c2ccccc2)c2ccccc2)CC1 in miR-21 reporter is entered as -4.1%

Assay outcomes from PubChem BioAssay.

Not all compounds are listed; the hit share may differ from the screen's.
